# Screens as filed in PubChem.
# GIRK2 act: activators of human GIRK2 potassium channels; G protein-activated inward rectifier potassium channel 2 (Homo sapiens), P48051; HEK293-GIRK2 thallium flux, Thallos fluorescence; calls only for hits at 25 µM; 0.05% of 63,000 active;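 active = among the strongest 0.2% of first-round signals and kept after retests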;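 note: first round at about 10 µM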
# Target sequence (P48051 whole entry, looked up): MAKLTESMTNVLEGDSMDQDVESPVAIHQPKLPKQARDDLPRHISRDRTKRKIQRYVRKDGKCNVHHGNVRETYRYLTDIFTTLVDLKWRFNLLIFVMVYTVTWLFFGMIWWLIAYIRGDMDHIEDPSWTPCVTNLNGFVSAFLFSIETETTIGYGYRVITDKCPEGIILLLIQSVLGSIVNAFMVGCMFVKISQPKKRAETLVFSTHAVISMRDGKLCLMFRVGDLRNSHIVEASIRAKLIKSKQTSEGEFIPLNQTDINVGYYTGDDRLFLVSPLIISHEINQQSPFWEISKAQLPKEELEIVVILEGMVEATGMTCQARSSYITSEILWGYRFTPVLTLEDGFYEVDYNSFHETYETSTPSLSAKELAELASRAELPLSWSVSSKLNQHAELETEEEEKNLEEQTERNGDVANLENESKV
# Calls only; i = inactive. These rows are one share of the data; the hit share may differ from the screen's.
GIRK2 act | smiles
i | O=C(CN1CCN(Cc2nc(-c3cccs3)cs2)CC1)NCCc1ccccc1
i | Cc1c(C)n2c3c(=O)[nH]c(=O)n(C)c3nc2n1CCN1CCN(Cc2cccc(Cl)c2)CC1
i | O=C(/C=C/c1ccccc1)N1CCC2(CCc3ccccc3O2)CC1
i | CN1C(=O)CC[C@H]1c1cccnc1
i | Cc1cccc(NC(=O)Cn2c(C)cc(C)c(S(=O)(=O)c3ccc(Br)cc3)c2=O)c1
i | CCC(C)NC(=O)CSc1ccc(N2CCN(c3cccc(C(F)(F)F)c3)CC2)nn1 (centres undefined)
i | CN1CCN(c2cc(NC(=O)CSc3nnnn3C)ncn2)CC1
i | Cc1ccc(-c2ccc3nn(Cc4nc(-c5ccccc5)no4)c(=O)n3n2)cc1C
i | CN(C)CCNC(=O)NC(=O)c1ccc(Cl)cc1
i | CSc1ccc(-c2noc(-c3nn(-c4cccc(Br)c4)ccc3=O)n2)cc1
i | COc1ccc(C2NC(=S)NC(C)=C2C(=O)Nc2cc(C)cc(C)c2)cc1 (centres undefined)
i | COc1ccc2nc(CN3CCN(S(=O)(=O)c4cccs4)CC3)[nH]c2c1
i | O=C(CSc1nc2ccccc2o1)N1CCN(c2ncccn2)CC1
i | CN(CC(=O)Nc1ccc(F)c(Cl)c1)c1nc2ccccc2s1
i | O=C(Nc1ccc([N+](=O)[O-])cc1Cl)c1cccc(S(=O)(=O)N2CCOCC2)c1
i | Cc1nc(C)c(-c2nnc(NC(=O)c3ccc4nsnc4c3)o2)s1
i | Cc1ccc(-c2noc(CN3N=NC4C(=O)N(c5ccc(C)c(C)c5)C(=O)C43)n2)cc1C (centres undefined)
i | Cc1ccccc1NC(=O)NC1(c2nc(C3CC3)no2)CCCCC1
i | c1ccc(Cn2c(CN3CCN(Cc4cccnc4)CC3)nc3ccccc32)cc1
i | O=C(NCc1ccc(F)cc1)C1CCN(c2ncccc2-c2nc(-c3ccc(Cl)cc3)no2)CC1
i | O=C(Nc1ccccc1C(F)(F)F)C1COCC(=O)N1Cc1cccs1 (centres undefined)
i | CCOc1ccc(S(=O)(=O)Nc2cnc(N3CCN(c4ccccn4)CC3)nc2)cc1
i | CCCNC(=O)/C(C#N)=C1\N=C(NC(=O)c2ccc([N+](=O)[O-])cc2)c2ccccc21
i | Cc1nc(NCCNC(=O)Nc2ccc3c(c2)OCO3)cc(-n2ccnc2C)n1
i | COc1ccc(-n2c(=O)[nH]cc(C(=O)Nc3ccccc3-c3ccc(=O)[nH]n3)c2=O)cc1

# The listing continues.
GIRK2 act | smiles
i | Cc1ccc(C)c(S(=O)(=O)NCC(=O)N2CCCC2)c1
i | CN1C(=CC=Cc2cc[n+](CCO)c3ccccc23)Sc2ccccc21
i | O=C(c1ccc(NS(=O)(=O)c2cccc(C(F)(F)F)c2)cc1)N1CCCCCC1
i | CCN(CCO)Cc1cc(=O)oc2cc(C)c(Cl)cc12
i | COc1ccc(-c2nc(SCC(=O)NCc3ccco3)c(-c3ccc(OC)cc3)[nH]2)cc1
i | COc1cccc(C(CNS(=O)(=O)c2ccc(Cl)s2)N2CCOCC2)c1 (centres undefined)
i | O=C1Nc2ccc(S(=O)(=O)Nc3ccc(N4CCOCC4)cc3)c3cccc1c23
i | CC1CCCCN1CC(O)COc1ccc(C23CC4CC(CC(C4)C2)C3)cc1 (centres undefined)
i | Cc1nc(-c2cccs2)sc1C(=O)NCCCn1ncccc1=O
i | O=C(CSc1ccc(F)cc1)Nc1ccc2c(c1)CCCN2C(=O)c1cccs1
i | COc1ccc(NC(=O)NCc2nnnn2-c2ccc(C)c(C)c2)cc1OC
i | COC(=O)COC(=O)c1cn(-c2ccc(C)cc2)c(=O)c2ccccc12
i | Cn1nccc1C(=O)N1CCN(c2nc3c(S(C)(=O)=O)cccc3s2)CC1
i | O=C(/C=C/c1ccco1)N1CCC2(CC1)OCCS2
i | O=C(CSc1nnc(Cn2ccc(=O)[nH]c2=O)o1)c1ccc(Cl)cc1Cl
i | CS(=O)(=O)c1cccc2sc(N3CCN(C(=O)c4cccc5ccccc45)CC3)nc12
i | COc1ccccc1NCC(=O)Nc1ncc(Cc2ccccc2F)s1
i | COc1ccccc1-c1noc(CCn2nc(-c3cccc(Cl)c3)ccc2=O)n1
i | COc1cccc(COc2coc(C(=O)NCc3ccco3)cc2=O)c1
i | CCOc1ccc(NC(=O)NCC(C)(O)CSC)cc1 (centres undefined)
i | CCOC(=O)N1CCN(C(=O)c2cc(-c3ccco3)on2)CC1
i | CC(=O)CC1(O)C(=O)N(CCCOc2ccc(Cl)cc2)c2ccccc21 (centres undefined)
i | CCOCCn1c(N2CCN(CC(=O)OC)CC2)nc2c1c(=O)[nH]c(=O)n2C
i | CCC(C)NC(=O)Cn1c(-c2ccc(F)cc2)nc2c(c1=O)CCN(Cc1ccccc1)C2 (centres undefined)
i | CC(=O)c1ccc(NC(=O)c2cc3n(n2)CCCO3)cc1

# Continuation.
GIRK2 act | smiles
i | Cc1ccc(NC(=O)C23CCC(C)(C(=O)C2)C3(C)C)c(C)c1 (centres undefined)
i | C=CCn1c(=O)c2ccc(C(=O)NC(C)CC)cc2n2c(=O)n(CC(=O)Nc3cccc(F)c3)nc12 (centres undefined)
i | COCCN(CCOC)C(=O)C(=O)c1cn(CC(=O)N2CCOCC2)c2ccccc12
i | O=C(CSc1nnc(CCc2nc3ccccc3[nH]2)o1)Nc1ccc2c(c1)OCCO2
i | O=c1ccc(-c2ccc(Br)cc2)nn1Cc1nc(-c2ccc(F)cc2)no1
i | CCOc1ccc(-c2csc(-n3nc(C)cc3NC(=O)C3CC3)n2)cc1
i | CCc1ccccc1NC(=O)NCCNc1ccc(C)nn1
i | O=C(Nc1nc2c(s1)CCc1ccccc1-2)C1CCN(S(=O)(=O)c2cccs2)CC1
i | O=C(c1n[nH]c2ccccc12)N1CCc2ccccc21
i | O=S(=O)(Cc1ccco1)C1CCN(S(=O)(=O)CCc2ccccc2)CC1
i | O=C(c1ccc2ncsc2c1)N(CCN1CCOCC1)c1nc2ccc(F)cc2s1
i | Cc1ccc2c(Nc3cccc(OC(F)(F)F)c3)c(C(=O)N3CCCC3)cnc2n1
i | CSc1cccc(NC(=O)C(=O)NCC2(c3ccccc3)CCOCC2)c1
i | CN(C)c1cccc(C(=O)NCC2CCN(c3ccccn3)CC2)c1
i | O=C(O)c1cc(=O)c2c(OCC(O)COc3cccc4oc(C(=O)O)cc(=O)c34)cccc2o1
i | COc1ccc(OC)c(NC(=O)Cn2ccn3nc(-c4ccc(C)cc4)cc3c2=O)c1
i | Brc1cnc2c(c1)nc1n2Cc2ccccc2-1
i | CCS(=O)(=O)NCCN1CCN(c2ccccc2OC)CC1
i | Cc1cccc(Cn2c(NCc3ccco3)nc3c2c(=O)[nH]c(=O)n3C)c1
i | O=C(Cn1cnc2c(sc3cccc(F)c32)c1=O)Nc1cccc(Cl)c1
i | CCOC(=O)c1ccc(NS(=O)(=O)c2ccc3[nH]c(=O)cc(C)c3c2)cc1
i | O=C(CCc1csc(NC(=O)Nc2ccccc2)n1)NCc1ccco1
i | O=C(NCc1ccc(F)cc1)Nc1nc2c(s1)CCC2
i | O=C(NCc1cccs1)Nc1nnc(-c2ccsc2)o1
i | CCOc1ccccc1NC(=O)Cn1cccc(S(=O)(=O)N2CCCCC2)c1=O

# (list continues)
GIRK2 act | smiles
i | CSc1ccccc1NC(=O)C1CN(C(=O)COc2ccccc2F)C1
i | CCc1ccc(S(=O)(=O)Nc2cc(OC)ncn2)s1
i | CCN(CC)C(=O)c1cnc2nc(C)ccc2c1Nc1ccc(OC)c(Cl)c1
i | O=c1c(-c2ccc(O)cc2)coc2cc(O)ccc12
i | Cc1nc(-c2ccc(N3CCN(C(=O)c4cccc(-n5cnnn5)c4)CC3)nc2)no1
i | Cc1cccc(Cn2c(=O)c3c(nc4oc(-c5ccc(F)cc5)cn43)n(C)c2=O)c1
i | Cc1csc(NC(=O)C2CCCN(c3ccc(-c4nc(C)no4)cn3)C2)n1 (centres undefined)
i | N#Cc1cccc(Nc2nccc(-c3cnn4ncccc34)n2)c1
i | O=C(NCC(c1ccc(F)cc1)N1CCOCC1)C(=O)Nc1ccc(F)c([N+](=O)[O-])c1 (centres undefined)
i | COCCN(Cc1ccoc1)C(=O)c1ccc2nsnc2c1
i | O=C(NCC(O)c1ccc2c(c1)CCO2)C1CC1 (centres undefined)
i | COc1ccc(CCS(=O)(=O)NCC2CCN(C(=O)c3cccnc3)CC2)cc1
i | O=C(Cc1ccc(NC(=O)c2ccno2)cc1)NCc1cccs1
i | O=C(NC1CC1)c1ccc(Cn2c(=S)[nH]c3cc4c(cc3c2=O)OCO4)cc1
i | Cc1ccc(-n2cc(C(=O)N3CCC(NC(=O)c4ccc(F)cc4)CC3)nn2)cc1F
i | O=C(Nc1nnc(-c2ccsc2)o1)c1c[nH]c2ccccc12
i | C=CCNc1oc(-c2ccc(COc3ccc(OC)cc3)o2)nc1C#N
i | Cc1nnsc1C(=O)N(Cc1ccoc1)Cc1cccs1
i | CCOc1ccccc1NC(=O)COc1cc(C)nc(N2CCC(C)CC2)n1
i | COc1cc(NC(=O)c2nnn(Cc3nc(-c4ccc(OC)c(OC)c4)oc3C)c2N)cc(OC)c1
i | Cc1ccc2c(c1)N(Cc1nc(-c3cccs3)no1)C(=O)CO2
i | COc1ccccc1C(=O)N1CCCC(c2nnc(CC(C)(C)C)o2)C1 (centres undefined)
i | COc1ccc(CC(C)(O)CNS(=O)(=O)c2ccc(F)c(Cl)c2)cc1 (centres undefined)
i | C=CCOc1ccc(C(=O)Nc2nonc2-c2ccccc2)cc1
i | Cc1nc2ccc3nc(NC(=O)Nc4ccccc4C)sc3c2s1

# Reformatted field by field: entries from further up.
> COc1ccc(CCS(=O)(=O)NCC2CCN(C(=O)c3cccnc3)CC2)cc1
  GIRK2 act: i
> C=CCNc1oc(-c2ccc(COc3ccc(OC)cc3)o2)nc1C#N
  GIRK2 act: i

# Continuation.
GIRK2 act | smiles
i | CC(=O)Nc1cccc(C2=NN(S(C)(=O)=O)C(c3ccco3)C2)c1 (centres undefined)
i | COC(=O)/C=C(\C(=O)OC)N1CCN(C(=S)c2ccc(N(C)C)cc2)CC1
i | Cc1cc(S(=O)(=O)N2C(C)CCCC2C)ccc1Cl (centres undefined)
i | COc1cccc(N2CCCn3c2nc2c3c(=O)n(C)c(=O)n2C)c1
i | N#Cc1nc(-c2ccccc2Cl)oc1N1CCN(C(=O)c2cccc(Cl)c2)CC1
i | Cc1nc2c(c(=O)c3ccccc3n2C)c(=O)n1C(C)c1ccccc1 (centres undefined)
i | COc1cccc2sc(N(Cc3cccnc3)C(=O)c3cc(C)nn3C)nc12
i | CCc1nc2c(c(=O)c3ccccc3n2C)c(=O)n1Cc1ccco1
i | CCOc1ccc(CC(=O)Nc2ccc3cn[nH]c3c2)cc1
i | Cc1oc(-c2ccc(Cl)c([N+](=O)[O-])c2)cc1-c1nnc(-c2ccco2)o1
i | COc1ccc(NC(=O)c2nn(-c3ccccc3)c3ccccc3c2=O)c(OC)c1
i | O=C(c1ccc2nc[nH]c2c1)N1CCC(Oc2ccccn2)CC1
i | COc1ccc(OC)c(-c2cc(C(=O)NCC3CCN(C(=O)/C=C/c4ccco4)CC3)n(C)n2)c1
i | Cc1cc(C)c(N2CCN(S(=O)(=O)N(C)C)CC2)c(C)c1
i | O=C(NCc1ccccc1)Nc1ccc(-c2ccc(N3CCCC3)nn2)cc1
i | Nc1c(C(=O)NCCc2ccccc2)c2nc3ccccc3nc2n1/N=C\c1cccs1
i | Cc1cc(NC(=O)C(=O)N2CCN(c3ccc(F)cc3)CC2)c2ccccc2n1
i | CC(C)c1ccc2oc(=O)cc(CN3CCN(CCO)CC3)c2c1
i | CSc1cccc(NC(=O)C2(c3cccs3)CCCC2)c1
i | Cc1cc(NC(=O)Cn2c(C)nc(-c3ccccn3)cc2=O)ccc1Br
i | COc1ccc(OC)c(-c2csc(-c3nnn(-c4ccccc4)c3C)n2)c1
i | Cc1nnc(C2CCN(C(=O)C(C)(C)Oc3ccc(Cl)cc3)CC2)s1
i | COc1ccccc1-c1nc(C#N)c(N2CCN(C(=O)c3ccccc3Cl)CC2)o1
i | O=C(Cn1ccn2nc(-c3ccccc3)cc2c1=O)Nc1ccc2c(c1)OCCO2
i | O=C(NCCC1CCCCN1S(=O)(=O)c1cccs1)c1ccno1 (centres undefined)

# Reformatted: entries from further up.
Compound | GIRK2 act
CC(C)c1ccc2oc(=O)cc(CN3CCN(CCO)CC3)c2c1 | i
CSc1cccc(NC(=O)C2(c3cccs3)CCCC2)c1 | i
Cc1cc(NC(=O)Cn2c(C)nc(-c3ccccn3)cc2=O)ccc1Br | i
COc1ccc(OC)c(-c2csc(-c3nnn(-c4ccccc4)c3C)n2)c1 | i
Cc1nnc(C2CCN(C(=O)C(C)(C)Oc3ccc(Cl)cc3)CC2)s1 | i
COc1ccccc1-c1nc(C#N)c(N2CCN(C(=O)c3ccccc3Cl)CC2)o1 | i
O=C(Cn1ccn2nc(-c3ccccc3)cc2c1=O)Nc1ccc2c(c1)OCCO2 | i

# Further entries follow.
GIRK2 act | smiles
i | COc1ccc(-c2nn3c(N4CCCC4)cc(C)nc3c2C)cc1OC
i | O=C(Nc1ccc(C(=O)O)c(O)c1)c1cc2ccccc2c(=O)o1
i | COc1ccc(-c2nnc3c4cnn(-c5ccc(C)cc5C)c4ncn23)c(O)c1
i | O=C(Nc1nc2c(s1)CN(C(=O)c1ccc(Cl)s1)CC2)C1CCCO1 (centres undefined)
i | Cc1c(C)n2c3c(=O)[nH]c(=O)n(C)c3nc2n1CCCN(C)Cc1ccccc1
i | CCOC(=O)c1cnn2ccc(NC(=O)c3cc(Cl)ccc3OC)cc12
